Screening results deposited in PubChem by National Center for Advancing Translational Sciences (NCATS).
VDR inhibitor – inhibitors of human vitamin D receptor. VDR-SRC2-3 peptide fluorescence polarization, 2 h. Potency, µM, inactives show max response, negative = inhibition, actives largely listed as inhibitors. actives 0.93% (n = 400,000). AID 504847; active = well fitted inhibition curve with a large enough effect; inconclusive = small, poorly fitted or top-dose-only effect, or another doubt; inactive = no such curve, though single readings can be large or run the other way; also: series mostly up to about 120 µM
Target sequence (P11473 whole entry, looked up): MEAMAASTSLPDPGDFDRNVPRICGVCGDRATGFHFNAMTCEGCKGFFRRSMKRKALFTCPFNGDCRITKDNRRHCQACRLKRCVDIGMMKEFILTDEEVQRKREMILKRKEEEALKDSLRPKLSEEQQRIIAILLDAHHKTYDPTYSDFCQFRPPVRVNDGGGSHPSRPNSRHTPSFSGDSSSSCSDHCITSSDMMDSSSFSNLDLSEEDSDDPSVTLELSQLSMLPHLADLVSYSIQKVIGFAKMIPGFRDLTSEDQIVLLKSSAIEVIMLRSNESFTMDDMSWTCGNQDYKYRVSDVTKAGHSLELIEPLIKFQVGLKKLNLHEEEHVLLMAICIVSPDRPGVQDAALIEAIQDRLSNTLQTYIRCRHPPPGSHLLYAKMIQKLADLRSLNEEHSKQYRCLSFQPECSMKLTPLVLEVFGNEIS
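Reagent solutions, kept cold and dark, are dispensed first; compounds are then pinned in at 23 nl, plates briefly spun, and incubated 2 h at ambient temperature. Inhibition of VDR–SRC2-3 peptide binding is read by fluorescence polarization.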
* = called active by the depositor; ? = inconclusive; & = joins results of further samples. % is scaled to controls: 0 for no effect and ±100 for the full control effect; potency is read from the fitted curve at half-maximal effect. A portion of the library; count on the stated rates, not on these rows.

VDR inhibitor	SMILES
9%	O=S(=O)(NCCc1nnc2ccc(SCc3ccc(C(F)(F)F)cc3)nn12)c1ccccc1
-16%	COc1ccc(Cl)cc1NC(=O)C(C)N1CCc2ccccc21 (stereo not drawn)
-14%	Cc1ccc(C(=O)CC2(O)C(=O)N(C)c3ccc(Br)cc32)c(C)c1 (stereo not drawn)
0%	CC1CN(S(=O)(=O)c2cccc(C(=O)NNC(=O)C(C)Oc3ccccc3F)c2)CC(C)O1 (stereo not drawn)
-1%	Cn1cc(C(F)(F)F)nc1-c1ccc(OC[C@@H](O)CNCCOc2ccc(O)c(C(N)=O)c2)cc1
-16%	Cc1c(Cl)cccc1NC(=O)CCC(=O)N/N=C/c1ccco1
-6%	COc1ccc(Cc2nnc(SCC(=O)NC(C)c3ccccc3)o2)cc1 (stereo not drawn)
11µM*	COc1ccc(/C=C/C(=O)c2cccs2)c(OC)c1
8%	Cc1nc(C(F)(F)F)nc(Nc2ccc(N=Nc3ccccc3)cc2)c1C#N
-22%	Cc1ccc(NC(=O)c2oc3ccccc3c2NC(=O)C23CC4CC(CC(C4)C2)C3)cc1
4%	CN(c1ccccc1C(=O)NC1CCCCC1)S(=O)(=O)c1ccccc1
?	O=C1C=CC[C@H](/C=C/C[C@@H](O)C[C@H](O)CCc2ccccc2)O1
7%	Cc1[nH]c(C)c(S(=O)(=O)NCc2ccccc2Cl)c1C(=O)N1CCCC1
-12%&3%	CCc1cccc(C)c1NC(=O)C1CCN(c2nn3c(=O)cc(C)nc3s2)CC1
3%	Cc1ccc(S(=O)(=O)N(CC(=O)N2CCCC2)C2CCCCC2)cc1
-17%	Cc1ccc(-c2ccc(CCC(=O)O)n2-c2cccc(C(=O)O)c2)cc1
9%	Cc1ccc(CN(C(=O)c2csnn2)C(C(=O)NC2CCCC2)c2ccc(C)o2)cc1 (stereo not drawn)
-11%	COC(=O)CC(C(=O)Nc1cc(C(=O)OC)cc(C(=O)OC)c1)N1CCN(C)CC1 (stereo not drawn)
?	S=c1[nH]c(-c2ccccc2)cn1/N=C/c1ccccc1Br
-8%&-4%	COc1ccc(NC(=O)C2CCCN(S(=O)(=O)c3ccc4c(c3)oc(=O)n4C)C2)c(OC)c1 (stereo not drawn)

6 entries from above, with tabs:
compound	VDR inhibitor
COc1ccc(Cl)cc1NC(=O)C(C)N1CCc2ccccc21 (stereo not drawn)	-16%
Cc1ccc(C(=O)CC2(O)C(=O)N(C)c3ccc(Br)cc32)c(C)c1 (stereo not drawn)	-14%
CC1CN(S(=O)(=O)c2cccc(C(=O)NNC(=O)C(C)Oc3ccccc3F)c2)CC(C)O1 (stereo not drawn)	0%
Cn1cc(C(F)(F)F)nc1-c1ccc(OC[C@@H](O)CNCCOc2ccc(O)c(C(N)=O)c2)cc1	-1%
Cc1c(Cl)cccc1NC(=O)CCC(=O)N/N=C/c1ccco1	-16%
COc1ccc(Cc2nnc(SCC(=O)NC(C)c3ccccc3)o2)cc1 (stereo not drawn)	-6%

Following part.
VDR inhibitor	SMILES
4%	CCCCN(CC)C(=O)/C=C/c1cccc([N+](=O)[O-])c1
9%	Clc1ccc(N2COC3c4cccc5cccc(c45)C32)cc1 (stereo not drawn)
-4%	CCCCC(CC)CNC(=O)Cc1ccc(-n2c(=O)[nH]c3ccccc3c2=O)cc1 (stereo not drawn)
4%	O=C(CSc1nc(-c2ccccc2)c(-c2ccccc2)o1)N1CCOCC1
-7%	CCOC(=O)Cc1csc(NC(=O)c2ccncc2)n1
7%	Cc1cc2c(cc1S(=O)(=O)N(C)CC(=O)Nc1ccc(C#N)cc1)OCC(=O)N2
8%	O=C(NCCCn1ccnc1)c1ccco1
3%	Cc1cc2ccccn2c1C(=O)c1nc(NCc2ccccc2)ncc1Cl
5%	Cc1ccnn1CC(=O)N/N=C/c1ccc([N+](=O)[O-])s1
20%	COc1ccc(NC(=O)NNS(=O)(=O)c2cc(C)ccc2C)cc1OC
2%	Cn1c(-c2ccc3c(c2)OCO3)cnc1NC(=O)CCC(=O)NCCc1ccccc1
0%	COC(=O)C(Cc1cnc(Cl)s1)(C(=O)OC)c1ccc([N+](=O)[O-])cc1
7%	Cc1ccc(Cl)cc1N1CCN(C(=O)c2nn(C)c3c2CS(=O)(=O)c2ccccc2-3)CC1
5%	CCN(CC(=O)Nc1c(F)cccc1F)C(=O)Cc1ccc(S(=O)(=O)N2CCOCC2)s1
-18%&-23%	Cc1ccc2nc(-c3ccc(O)cc3)c(Nc3ccc4c(c3)OCCO4)n2c1
-2%	CCC(C)NC(=O)CN(C1CCCCC1)S(C)(=O)=O (stereo not drawn)
12%	CCCn1c(=O)c2sccc2n2c(CCCC(=O)NC3CCCCC3)nnc12
6%	Cc1ccc(NC(=O)CN(C)C(=O)c2ccc(NS(=O)(=O)c3ccc4[nH]c(=O)[nH]c4c3)cc2)cc1
2%	COC(=O)CNC(=O)CN1C(=O)N(c2cccc(Cl)c2)C(N(O)C(=O)Nc2cccc(Cl)c2)C1(C)C (stereo not drawn)
-4%	Cc1nc2ccc(-c3nc4ccccc4[nH]3)cc2[nH]1
-4%	O=C(O)c1cc(N2CCCCC2)nc2ccccc12
18%	COc1ccc(CN2C3CCCC2CC(NC(=O)Nc2ccccc2C)C3)cc1 (stereo not drawn)
-6%	COc1cc(Br)cc(C=Nc2cccc(C(F)(F)F)c2)c1O
-8%	CSc1ccccc1C(=O)N1CCC2(CC1)CC(=O)c1ccccc1O2
-2%	O=C(NCCN1CCOCC1)c1ccccc1OCc1ccccc1
-9%	Cc1ccc(SCCSc2nc(N)cc(=O)[nH]2)cc1
-26%	O=[N+]([O-])c1cccc(-c2ccc3nnc(SCc4cccnc4)n3n2)c1
-4%	Cc1nn(CC(=O)c2ccccc2Cl)c(C)c1[N+](=O)[O-]
2%	Cc1ccc(C(=O)OCC(=O)NCc2cccs2)cc1
-5%&3%	CCOc1ccccc1NS(=O)(=O)c1ccc(-c2cnc(C3CC3)o2)cc1
8%	O=C(c1cc([N+](=O)[O-])ccc1N1CCOCC1)N1CCCC1
-13%	Cc1cccc(NC2=NCC(=O)N2Cc2ccccc2)c1
-16%	CC1=C(C)C(O)N(Cc2ccccc2)C1=O (stereo not drawn)
-15%	CCSc1nnc(NC(=O)C2CCN(C(=O)c3ccco3)CC2)s1
-4%	COCCC(=O)N1CCCC(C(=O)c2ccc3c4c(cccc24)CC3)C1 (stereo not drawn)
11%	CCc1[nH]nc2c1C1(CCN(C(=O)c3ccccc3)CC1)C(C#N)=C(N)O2
-1%	CCCCn1c(=O)[nH]c(=O)c2c1nc(-c1ccccc1OC(F)F)n2C
-4%	C[C@@]12C=CC(=O)C=C1CC[C@H]1[C@H]3CC[C@](O)(C(=O)CO)[C@]3(C)CC(=O)[C@@H]12
-8%	CCOc1ccc2nc(SCc3ccc(CC(=O)O)cc3)c(C#N)cc2c1
7%	CC(=O)OCC1OC(OC2C[C@]3(C)C(CC(O)C4C([C@](C)(CCC=C(C)C)OC5OC(CO)C(O)C(O)C5O)CC[C@]43C)[C@@]3(C)CCC(O)C(C)(C)C23)C(O[C@@H]2OC(C)C(O)C(O)C2O)C(O)C1O (stereo partly drawn)
6%	COc1ccc(CCNC(=O)c2c(O)c3cccc4c3n(c2=O)CC4)cc1OC
7%	COc1cc(OC)nc(NC(=O)CS(=O)(=O)c2ccccc2)n1
-8%	CCC1CN(C(=O)N2CCC(C(=O)NCc3ccccc3OC)CC2)c2ccccc2O1 (stereo not drawn)
15%	Cc1ccc(C(=O)NCC(c2cccs2)N(C)C)cc1S(=O)(=O)N1CCOCC1 (stereo not drawn)
?	CCCCCOC(=O)CSc1nc2c(c(=O)[nH]c(=O)n2C)n1CCc1ccccc1
-10%	CCOC(=O)N1CCC(N(CCN(C)C)C(=S)Nc2cccc(Cl)c2C)CC1
-12%	Cc1ccc(Nc2c([N+](=O)[O-])ccc3nonc23)c(C)c1
14%	Fc1ccc(-c2csc3nnc(SCc4cccnc4)n23)cc1
-15%	O=C(NC1CC1)c1cc(=S)[nH]c2ccccc12
-14%	O=C(NCc1ccccc1)C1C(=O)N(Cc2ccccc2)C(=O)C1C1(O)CCCC1 (stereo not drawn)
-3%	CC#CCN1c2ccccc2[C@]23C[C@@H](C(=O)OC)N=C2NC(C(=O)OC)=C(C(=O)OC)[C@H]13
7%	CCOc1ccc(S(=O)(=O)n2cnc3ccccc32)cc1
-3%	Cc1cccc(C)c1Nc1c(-c2ccccc2Cl)nc2cnccn12
-3%	Cc1sc2ncnc(N3CCC(C(=O)Nc4ccccc4C(C)(C)C)CC3)c2c1C
-6%	CC(C)OC(=O)c1cccc(C(=O)Nc2cccc(NC(=O)c3cccc(C(=O)OC(C)C)n3)n2)n1
10%	CSc1nc2ccccc2nc1N(C)S(=O)(=O)c1ccc(C)cc1
-5%	Cn1cccc1C(=O)OCC(=O)NNC(=O)c1ccc([N+](=O)[O-])cc1
-9%	O=C(O)C1C2CCC(C2)C1C(=O)NCCCn1ccnc1 (stereo not drawn)
-17%	O=C(Nc1cccnc1)c1cc(-c2ccc3c(c2)OCO3)on1
11%	Cc1cccc(OCCCn2c(CCNC(=O)C(C)(C)C)nc3ccccc32)c1

New compounds follow:
VDR inhibitor	SMILES
8%	CNC(=O)CSc1nnc(-c2ccc(S(=O)(=O)N3CCCC3)cc2)n1-c1cccc(C)c1C
-3%	CN(C(=O)CSc1nncn2c1cc1occc12)c1ccccc1
1%	COc1cc(Nc2nc3ccccc3c3nnc(C)n23)cc(OC)c1
-16%	CCc1cccc(NC(=O)CS(=O)Cc2nc(-c3ccc(C)cc3)oc2C)c1 (stereo not drawn)
12%	COC(C(=O)Nc1ccc(S(=O)(=O)N2CCCCC2)cc1)c1ccccc1 (stereo not drawn)
18%	Cn1c(=O)n(C)c2cc([N+](=O)[O-])c(N3CCN(C(=O)c4ccccc4Br)CC3)cc21
-4%	CN(CC(=O)Nc1ccc(Cl)c(Cl)c1)C(=O)C12CC3CC(CC(C3)C1)C2
-22%	CC1(C)C(C(=O)OCC(Cl)(Cl)Cl)N2C(=O)C(NC(=O)Cc3ccccc3)C2S1=O (stereo not drawn)
-1%	COCCCNC(=O)C1=CCN(S(=O)(=O)c2ccc(C)cc2)CC1
-1%	O=C(CSc1nnc(-c2ccccn2)n1Cc1ccccc1)N1CCCC1
4%	COc1cccc(NS(=O)(=O)c2ccc3[nH]cc(C(=O)N4CCCC4)c(=O)c3c2)c1
-2%	NC(=O)c1nsc(C(=O)N(Cc2ccco2)C(C(=O)NCc2ccc(F)cc2)c2ccc(O)cc2)c1N (stereo not drawn)
3%	CC1=C(C(=O)Nc2ccccn2)C(c2ccc(F)cc2)n2ncnc2N1 (stereo not drawn)
-10%	CC(C)(C)C(=O)C1=C(O)C(=O)N(Cc2ccccc2)C1c1ccccc1F (stereo not drawn)
4%	CSc1cccc(CN2CCN(Cc3ccccc3)C(CCO)C2)c1 (stereo not drawn)
13%	COc1ccc(-c2nc(N=Nc3ccc(O)cc3)n[nH]2)cc1
14%	CC(C)(C)OC(=O)CN1C(=O)C(Sc2n[nH]c(-c3ccccc3)n2)CCc2ccccc21 (stereo not drawn)
9%	COCCn1nnnc1C(c1ccccc1Cl)N1CCN(c2ccccc2OC)CC1 (stereo not drawn)
1%	Oc1ccc(Cl)cc1C1C=C(c2ccc3c(c2)OCO3)NC(c2ccc(Br)cc2)N1 (stereo not drawn)
-9%	CCN(CC)S(=O)(=O)c1ccc(N/N=C(\C)c2ccc(OC)cc2O)nc1

4 structures out of the list, arranged by SMILES length, ascending.
VDR inhibitor	SMILES
3%	CC1=C(C(=O)Nc2ccccn2)C(c2ccc(F)cc2)n2ncnc2N1 (stereo not drawn)
-16%	CCc1cccc(NC(=O)CS(=O)Cc2nc(-c3ccc(C)cc3)oc2C)c1 (stereo not drawn)
-10%	CC(C)(C)C(=O)C1=C(O)C(=O)N(Cc2ccccc2)C1c1ccccc1F (stereo not drawn)
8%	CNC(=O)CSc1nnc(-c2ccc(S(=O)(=O)N3CCCC3)cc2)n1-c1cccc(C)c1C

(listing goes on)
VDR inhibitor	SMILES
2%	O=C1c2cc(Cl)ccc2OC2(CCNCC2)C12CC(c1ccc(Cl)cc1)=NO2 (stereo not drawn)
1%	CCc1nnc2c3ccccc3nc(Nc3ccc(F)c(Cl)c3)n12
5%	CC(C)Nc1nnc(SC(C)C(=O)NCc2ccc3c(c2)OCO3)s1 (stereo not drawn)
-12%	CC(C)C(=O)Nc1cccc(C(=O)Nc2nnc(CC(C)(C)C)s2)c1
-4%	NC(=O)C1CN(C(=O)c2nn(Cc3ccccc3)c(=O)c3ccccc23)c2ccccc2O1 (stereo not drawn)
-4%	COC(=O)c1ccc(N=C2S/C(=C\c3cc(C)n(-c4cccnc4)c3C)C(=O)N2C)cc1
-2%	CCNCc1nc2cc(OC)c(OC)cc2c(=O)[nH]1
4%	Cc1ccnc(NC(=O)c2cccc(NC(=O)Cc3ccccc3)c2)c1
-20%	Cc1ccc2[nH]c(C(=O)O)c(-c3ccccc3)c2c1
-2%	Oc1cc2ccccc2nc1-c1ccccc1Cl
3%	CCN1C(=O)c2cccc3c(S(=O)(=O)Nc4nc(C)cs4)ccc1c23
-3%	Cc1cc(NC(=O)CCC(=O)N(CC(=O)NC2CCCC2)c2ccc(C(C)C)cc2)no1
-12%	CCC1Sc2ccc(S(=O)(=O)CCC(=O)NCc3cccs3)cc2NC1=O (stereo not drawn)
-19%	CN(C)S(=O)(=O)c1cccc(NC(=O)c2c[nH]c3ccccc23)c1
-10%	CCc1ccc(C(=O)c2cnc3ccc(OC)cc3c2N2CCN(CC)CC2)cc1
-3%	O=C(CSCc1ccc(Cl)cc1)N1CCCCC1
11%	O=C(c1cc(-c2ccc(Cl)cc2Cl)on1)N1CCCCCC1
9%	Cc1ccc(-n2ncc(C(=O)N3CCN(Cc4ccccc4)CC3)c2C2CCN(C(=O)OC(C)(C)C)CC2)c(C)c1
2%	COC(=O)COc1ccc(NC(=O)C2CCCO2)cc1 (stereo not drawn)
